Screening data as filed in PubChem BioAssay.
rRNA inh HTS – selective bacterial rRNA inhibition in E. coli; E. coli WT GFP vs humanized-ribosome RFP mutants, fluorescence, 24 h; hits give low values; DMSO median 0, no signal -100; GFP signal change (wild-type ribosome), % (test concentration not listed); 350,000 compounds, 1.6% hits; AID 720706;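 active = significant combined selectivity score with lowered wild-type GFP, culture density cut under 30%, mutant RFP and density less affected; inactive = any of these conditions unmet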; also: one replicate is shown; some compounds called inactive have numbers as strong as hits
AF4-AF9 inh – MLL-AF4/AF9 protein interaction inhibition. AlphaScreen, biotin-AF4 peptide binding to FLAG-AF9. 350,000 compounds, 0.47% hits. AID 651704. inhibition, % at 10 µM;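 active = every replicate reaching a set inhibition limit, whatever the replicate mean, cut at about 25% in these data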;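 also: 0% = plate neutral control median and 100% = total signal loss; the record names both 10 and 1 µM as test concentration; the first replicate is given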
Target sequence (P42568 whole entry, looked up): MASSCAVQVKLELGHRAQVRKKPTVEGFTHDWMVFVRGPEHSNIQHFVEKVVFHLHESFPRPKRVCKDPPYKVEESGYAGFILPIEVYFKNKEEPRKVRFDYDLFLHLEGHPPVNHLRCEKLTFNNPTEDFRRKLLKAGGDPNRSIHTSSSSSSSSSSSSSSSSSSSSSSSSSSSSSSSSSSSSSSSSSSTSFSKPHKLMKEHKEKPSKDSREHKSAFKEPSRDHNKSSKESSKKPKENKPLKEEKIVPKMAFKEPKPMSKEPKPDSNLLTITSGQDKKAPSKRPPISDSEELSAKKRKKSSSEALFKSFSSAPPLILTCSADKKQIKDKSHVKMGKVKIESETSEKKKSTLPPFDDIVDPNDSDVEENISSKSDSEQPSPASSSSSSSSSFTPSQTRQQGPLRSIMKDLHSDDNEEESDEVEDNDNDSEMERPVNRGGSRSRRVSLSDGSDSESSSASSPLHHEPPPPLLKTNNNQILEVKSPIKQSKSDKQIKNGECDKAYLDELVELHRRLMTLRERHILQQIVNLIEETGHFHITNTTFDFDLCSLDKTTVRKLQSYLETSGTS
rRNA inh HTS OD600 – second read-out of rRNA inh HTS, no call of its own (marks repeat the call); OD600 change, %; measured here: OD600 growth;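 optical density of the mix in the first replicate; 0 = DMSO median and -100 = no signal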
rRNA inh HTS RFP – recorded beside rRNA inh HTS, whose call it bears; RFP signal change, %; measured here: RFP humanized mutant strains;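 first replicate; 0 = DMSO median and -100 = no signal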
Numbers without * were called inactive; & = joins results of further samples.

Every second line gives: rRNA inh HTS	rRNA inh HTS OD600	rRNA inh HTS RFP	AF4-AF9 inh
- O=C(C[C@H]1C=C[C@@H](NS(=O)(=O)c2ccc(F)cc2)[C@H](CO)O1)N1CCN(c2ccccc2)CC1
→ -2	-9	-2.2	-1.5
- C[C@@H]1CN([C@@H](C)CO)C(=O)Cc2cc(NS(=O)(=O)c3cccs3)ccc2O[C@H]1CN(C)S(=O)(=O)c1ccccc1
→ -5	-3	1.9	0.2
- CCCN1[C@H](C(=O)OC)[C@@H](CO)[C@@H]2Cn3c(ccc(-c4ccncc4)c3=O)[C@@H]21
→ 1	10	-0.3	-2.9
- OC[C@H]1[C@@H](c2ccccc2)C2(CN(Cc3ccccc3)C2)N1Cc1ccncc1
→ 2	-6	0.6	1.9
- CNC[C@@H]1Oc2ccc(NC(=O)Cc3ccccc3)cc2C(=O)N([C@H](C)CO)C[C@@H]1C
→ 1	4	-1.0	-3.4
- C[C@@H]1CN([C@H](C)CO)C(=O)Cc2cc(NC(=O)CCC(F)(F)F)ccc2O[C@@H]1CN(C)Cc1ccncc1
→ 0	7	-0.3	-2.0
- CN1C[C@@H]2[C@H](c3ccccc31)[C@H](CO)N2Cc1ccccc1Cl
→ -5	-9	2.0	3.8
- CCCN(C)C[C@@H]1Oc2cc(C#Cc3cccnc3)ccc2S(=O)(=O)N([C@@H](C)CO)C[C@@H]1C
→ 0	3	-0.8	-1.5
- C[C@H](CO)N1C[C@H](C)[C@H](CN(C)Cc2ccc3c(c2)OCO3)Oc2c(NC(=O)C3CCOCC3)cccc2C1=O
→ 1	7	-0.8	-1.7
- O=c1[nH][nH]c2c1[C@H](c1ccc(Cl)cc1)O[C@H](C1CC1)C2
→ 1	15	-2.9	0.4
- C[C@H]1CN([C@@H](C)CO)C(=O)c2cccc(NC(=O)c3nc4ccccc4s3)c2O[C@H]1CN(C)S(=O)(=O)c1ccc(Cl)cc1
→ 3	10	1.3	-2.3
- COc1ccc2c3c([nH]c2c1)[C@@H](CO)N(C(=O)Nc1ccc(F)cc1)CC31CCN(S(=O)(=O)c2cccc(F)c2)CC1
→ -1	0	-0.6	0.2
- C[C@H]1CN([C@@H](C)CO)C(=O)c2cccc(NC(=O)C3CCOCC3)c2O[C@H]1CN(C)Cc1ccc(-c2ccccc2)cc1
→ 0	6	0.1	0.2
- CC(=O)N1CC2(C1)[C@H](c1ccccc1)[C@@H](CO)N2Cc1cccc(Cl)c1
→ 2	4	-1.3	-1.6
- CCN(CC)C(=O)C1=C(C)N(Cc2ccc(OC)cc2)C(=O)C(CC(=O)NCC2CCCCC2)C1 (configuration not stated)
→ 5	-1	1.7	-1.3

Additional entries:
Every second line gives: rRNA inh HTS	rRNA inh HTS OD600	rRNA inh HTS RFP	AF4-AF9 inh
- Cc1ccc(S(=O)(=O)N(C)C[C@@H]2Oc3ccc(NC(=O)Cc4cn(C)c5ccccc45)cc3CC(=O)N([C@@H](C)CO)C[C@@H]2C)cc1
→ 1	2	1.4	1.3
- CCN(C[C@H]1N[C@@H](CO)[C@@H]1c1ccccc1)C(=O)c1ccncc1
→ 1	6	-0.6	-2.2
- C[C@@H]1CN([C@@H](C)CO)C(=O)c2cc(NS(C)(=O)=O)ccc2O[C@H]1CN(C)S(=O)(=O)c1cccs1
→ -2	2	-0.9	-1.5
- O=C(c1ccccc1)N(CC1CCC1)C[C@@H]1N[C@H](CO)[C@@H]1c1ccccc1
→ -3	-6	-2.4	2.3
- C[C@H]1CN([C@@H](C)CO)C(=O)c2c(c3ccccc3n2C)-c2ccccc2CO[C@H]1CN(C)C(=O)CCC(F)(F)F
→ -3	-11	-1.4	-4.7
- C[C@H](NC(=O)[C@H]1[C@H](CO)[C@H]2Cn3c(cccc3=O)[C@H]2N1CC1CCCCC1)c1ccccc1
→ -8	-28	3.4	2.0
- C[C@H]1CN([C@@H](C)CO)C(=O)c2cc(NC(=O)NC3CCCCC3)ccc2O[C@H]1CN(C)Cc1ccc(Oc2ccccc2)cc1
→ 0	-1	2.7	-0.1
- O=C(C[C@H]1C[C@@H]2c3cc(NS(=O)(=O)c4ccc(F)cc4)ccc3O[C@@H]2[C@H](CO)O1)NCc1ccc(Cl)cc1
→ -19	-50	14	3.4
- CCCC(=O)Nc1ccc2c(c1)OC[C@H](C)N(CC1CCCC1)C[C@H](C)[C@@H](OC)CN(C)C2=O
→ -1	-3	3.8	-0.7
- Cc1noc(C)c1NC(=O)N(C)C[C@H]1Oc2ncc(C#CCN(C)C)cc2C(=O)N([C@H](C)CO)C[C@@H]1C
→ 6	10	-1.9	-0.9
- O=C(C[C@H]1C=C[C@H](NC(=O)Cc2cccnc2)[C@@H](CO)O1)Nc1ccccc1
→ 2	4	-0.3	-1.3
- CC(C)C[C@H]1COc2cc(N3CCC[C@H]3CO)ccc2S(=O)(=O)N1
→ -7	-5	-0.5	-0.9
- C[C@@H]1CN([C@@H](C)CO)C(=O)c2cc(N(C)C)ccc2O[C@@H](C)CCCCO[C@@H]1CN(C)C(=O)CCC(F)(F)F
→ -2	0	1.4	-1.8
- O=C(c1cccc(F)c1)N1CCCCN2[C@H](C1)[C@H](c1ccc(-c3cccnc3)cc1)[C@@H]2CO
→ -2	1	4.8	6.5
- C[C@H](CO)N1C[C@H](C)[C@H](CN(C)C(=O)Nc2cc(F)ccc2F)Oc2cc(-c3cccc(F)c3)ccc2S1(=O)=O
→ -3	-3	-0.4	-1.6

Exported as labelled records: entries from further up.
C[C@@H]1CN([C@H](C)CO)C(=O)Cc2cc(NC(=O)CCC(F)(F)F)ccc2O[C@@H]1CN(C)Cc1ccncc1
  rRNA inh HTS: 0; rRNA inh HTS OD600: 7; rRNA inh HTS RFP: -0.3; AF4-AF9 inh: -2.0
CN1C[C@@H]2[C@H](c3ccccc31)[C@H](CO)N2Cc1ccccc1Cl
  rRNA inh HTS: -5; rRNA inh HTS OD600: -9; rRNA inh HTS RFP: 2.0; AF4-AF9 inh: 3.8
CCCN(C)C[C@@H]1Oc2cc(C#Cc3cccnc3)ccc2S(=O)(=O)N([C@@H](C)CO)C[C@@H]1C
  rRNA inh HTS: 0; rRNA inh HTS OD600: 3; rRNA inh HTS RFP: -0.8; AF4-AF9 inh: -1.5
C[C@H](CO)N1C[C@H](C)[C@H](CN(C)Cc2ccc3c(c2)OCO3)Oc2c(NC(=O)C3CCOCC3)cccc2C1=O
  rRNA inh HTS: 1; rRNA inh HTS OD600: 7; rRNA inh HTS RFP: -0.8; AF4-AF9 inh: -1.7

(listing goes on)
Every second line gives: rRNA inh HTS	rRNA inh HTS OD600	rRNA inh HTS RFP	AF4-AF9 inh
- CCCCCCCCN1C(=O)[C@@H](CC(=O)N2CCN(C(=O)C3CC3)CC2)C[C@@]2(C(=O)OC)C1=C[C@H](C1CCCC1)O[C@@H]2C
→ 9	15	-0.3	1.3
- CCOC1=C2[C@H](c3ccc(CC)cc3)N(S(=O)(=O)c3ccc(C)cc3)C[C@H]2n2c(=O)n(-c3ccccc3)c(=O)n2C1
→ 0	6	-4.3	1.1
- CC(C)C(=O)N1CCC1(C)C(=O)NCc1ccc(C(C)(C)C)cc1 (configuration not stated)
→ 4	7	-0.5	-4.7
- O=C(C1CCC1)N1CC[C@@H]2[C@H](CO)Nc3ccc(Br)cc3[C@@H]21
→ 2	6	1.5	-1.8
- CCOc1cccc(-c2cc(N3CCN(CCO)CC3)n3nccc3n2)c1
→ 3	14	-1.4	1.6
- COCC(=O)N1[C@H](CO)[C@H](c2ccccc2-c2ccccc2)[C@@H]1C#N
→ 5	5	-0.3	-2.6
- CCCNC(=O)[C@@H]1[C@@H](CO)[C@@H]2Cn3c(ccc(-c4cccc(OC)c4)c3=O)[C@@H]2N1C
→ 0	-2	-0.4	-4.6
- CN1C(=O)c2cc(NC(=O)Cc3cccs3)ccc2OC[C@@H]2O[C@H](CC(=O)NCc3ccc(-c4ccccc4)cc3)CC[C@H]21
→ -6	-2	-0.5	-13
- CC(C)NC(=O)N1[C@H](CO)[C@H]2c3ccccc3N(C(=O)Nc3ccc(F)cc3)C[C@H]21
→ 1	9	-2.2	-0.1
- O=C(O)[C@@H]1[C@@H](CO)[C@@H]2Cn3c(ccc(C4=CCCCC4)c3=O)[C@@H]2N1Cc1ccc2c(c1)OCO2
→ -2	7	-0.8	-2.6
- CCC(=O)N1CC(=O)N2[C@H](CO)[C@H](c3ccc(-c4ccccc4F)cc3)[C@H]2C1
→ 1	4	1.2	-1.8
- COc1ccc(S(=O)(=O)N(C)C[C@H]2Oc3ccc(NS(=O)(=O)c4c(C)noc4C)cc3C(=O)N([C@H](C)CO)C[C@H]2C)cc1
→ -6	-9	2.1	0.1
- COc1ccc(CNC(=O)C[C@H]2C[C@@H]3c4cc(NS(=O)(=O)c5ccc(F)cc5)ccc4O[C@@H]3[C@@H](CO)O2)cc1
→ 1	-26	6.1	-1.2
- C[C@@H]1CN([C@@H](C)CO)C(=O)c2cc(NC(=O)CCN3CCOCC3)ccc2O[C@H]1CN(C)C(=O)Nc1cccc2ccccc12
→ 4	14	2.5	2.9
- C[C@H]1CN([C@@H](C)CO)S(=O)(=O)c2ccc(C#CC3CC3)cc2O[C@H]1CN(C)C
→ 4	15	-0.5	-9.6

More results:
Every second line gives: rRNA inh HTS	rRNA inh HTS OD600	rRNA inh HTS RFP	AF4-AF9 inh
- C[C@@H]1CN([C@@H](C)CO)C(=O)c2ccccc2-c2ccccc2CO[C@@H]1CN(C)C(=O)[C@@H]1CCCN1C
→ 0	0	-0.7	0.2
- COc1ccc2c3c([nH]c2c1)[C@@H](CO)N(C(=O)c1cccnc1)CC31CCN(C(=O)CN(C)C)CC1
→ 1	6	0.9	-5.8
- CC(C)CC1C(=O)N(Cc2cn(Cc3ccco3)nn2)CCS(=O)(=O)N1Cc1ccc(-c2cccc(N(C)C)c2)cc1 (configuration not stated)
→ -6	-5	-5.6	-1.5
- CO[C@@H]1CN(C)C(=O)c2ccc(NS(C)(=O)=O)cc2OC[C@H](C)N(C(=O)NC(C)C)C[C@H]1C
→ 2	0	-1.1	-2.5
- COc1ccc(S(=O)(=O)Nc2ccc3c(c2)C(=O)N([C@H](C)CO)C[C@@H](C)[C@H](CN(C)C(=O)NC2CCCCC2)OCCCC[C@H](C)O3)cc1
→ -2	5	0.0	0.8
- C[C@H]1CN([C@@H](C)CO)C(=O)c2cc(C#Cc3cccnc3)cnc2O[C@@H]1CN(C)Cc1cccnc1
→ 2	5	-1.2	-2.7
- O=C(C[C@H]1C[C@@H]2c3cc(NC(=O)Nc4ccccc4)ccc3O[C@@H]2[C@@H](CO)O1)NC1CCCC1
→ -5	-16	-1.2	1.6
- COc1ccccc1NC(=O)N1CC[C@@H]2[C@H]1c1cc(-c3ccccc3)ccc1N(C)[C@H]2CO
→ -2	5	-0.9	2.2
- C[C@@H]1CCCCO[C@@H](CN(C)C(=O)CCCN(C)C)[C@H](C)CN([C@@H](C)CO)C(=O)c2cc(NS(=O)(=O)c3ccc(Cl)cc3)ccc2O1
→ 2	2	0.9	3.4
- C[C@@H]1CCCCO[C@H](CN(C)C(=O)c2ccccc2)[C@H](C)CN([C@@H](C)CO)C(=O)c2cc(NS(=O)(=O)c3cccs3)ccc2O1
→ -2	-2	1.8	1.8
- C[C@@H]1CN([C@H](C)CO)C(=O)CCCn2cc(nn2)CO[C@H]1CN(C)C(=O)c1ccccc1
→ 4&14	-4&4	-1.0&0.0	-1.9&-1.9
- CC(=O)C(=Cc1ccc(Cl)cc1)C(=O)c1ccccc1
→ -35*	-22*	-5.9*	4.0
- C[C@@H]1CN([C@@H](C)CO)C(=O)c2cc(NC(=O)c3ccccc3)ccc2O[C@@H](C)CCCCO[C@H]1CN(C)Cc1ccc2c(c1)OCO2
→ -2	-6	0.3	4.8
- C[C@H](CO)N1C[C@H](C)[C@H](CN(C)S(=O)(=O)c2ccc(Cl)cc2)Oc2ccc(NC(=O)Nc3ccc4c(c3)OCO4)cc2CC1=O
→ 3	5	1.2	6.7
- CCCC(=O)Nc1ccc2c(c1)C(=O)N(C)C[C@@H](OC)[C@H](C)CN(C(=O)CN(C)C)[C@H](C)CO2
→ 2	6	-0.7	0.9

(further entries)
Every second line gives: rRNA inh HTS	rRNA inh HTS OD600	rRNA inh HTS RFP	AF4-AF9 inh
- C=CC(=O)Nc1cccc(Oc2nc(Nc3ccc(N4CCN(C)CC4)cc3OC)ncc2Cl)c1
→ -51	-80	-20	63*
- N#C[C@@H]1[C@H](c2ccccc2-c2cccc(F)c2)[C@H](CO)N1C(=O)Cc1cccnc1
→ -6	17	-4.3	-1.9
- O=C(C[C@H]1C=C[C@H](NC(=O)c2ccc(F)cc2)[C@H](CO)O1)NCCc1ccncc1
→ 1	-9	0.1	-1.6
- N#C[C@@H]1[C@@H](c2ccccc2-c2ccccc2)[C@@H](CO)N1C(=O)NC1CCCCC1
→ -1	-25	-1.8	-0.5
- COc1ccc(-c2cnc3c(c2)C(=O)N([C@@H](C)CO)C[C@H](C)[C@H](CN(C)C(=O)C2CCC2)O3)cc1
→ 8	11	-1.1	-1.0
- C/C=C/c1cnc2c(c1)C(=O)N([C@@H](C)CO)C[C@@H](C)[C@@H](CN(C)C(=O)c1ccc3c(c1)OCO3)O2
→ 3	9	-0.7	-5.8

This is a subset; the hit share may differ from the screen's.
